# High-throughput results (PubChem BioAssay)
# Vaccinia mCherry: inhibitors of vaccinia virus infection (mCherry reporter signal). Vaccinia virus mCherry reporter infection, fluorescence; about a quarter of the inactives have no number. Potency, µM (doses to about 36.5 µM), inactives show top-dose activity change, negative = inhibition, actives largely listed as inhibitors. hit rate 0.63% among 310,000. AID 720579; active = well fitted inhibition curve with a large enough effect; inconclusive = small, poorly fitted or top-dose-only effect; inactive = no such curve, though single readings can be large or run the other way; tested in A549 cells; also: nearly all actives have a fitted effect of over 35% in size; inactives centre near -10
# VACV Venus inh: vaccinia inhibition (Venus reporter) | Potency, µM (highest dose often 36.5 µM), inactives show at the top dose activity change, negative = inhibition, hits mostly inhibitors | hit rate 0.46% among 330,000 | Vaccinia virus Venus reporter expression, fluorescence; active means well fitted inhibition curve with a large enough effect; inconclusive means small, poorly fitted or top-dose-only effect; inactive means no such curve, though single readings can be large or run the other way; tested in A549 cells; also: nearly all actives have a fitted effect of over 30% in size; inactives centre near -10
# Starred values were filed as active, the others as inactive; i = inactive; ? = inconclusive; . = no result given; & = joins results of further samples; [ ] = remark or other dose. % is scaled to controls: 0 for no effect and ±100 for the full control effect; potency is read from the fitted curve at half-maximal effect.
SMILES,Vaccinia mCherry,VACV Venus inh
O=C(CSc1nc2ccccc2nc1Cc1ccccc1)Nc1ccccc1C(F)(F)F,0%,8%
CCOCCCNC(=O)c1cc2c(=O)n(C)c3ccccc3c2n1C,10%,6%
O=C(CCc1ccc(S(=O)(=O)NC2CCCCC2)cc1)NCc1cccnc1,-11%,-16%
Oc1ccc(C2C[C@H]3CC[C@@H]2C3)cc1O (stereo partly drawn),-2%,-14%
COc1cc2nc3n(c(=O)c2cc1OC)-c1ncccc1C(=O)NC3Cc1ccccc1 (stereo not drawn),i,-15%
COc1ccc(/C=N\NC(=O)C2CCCC2)cc1Br,i,-17%
COc1ccc(/C=C2\SC(=O)N(CC(=O)NNC(=O)c3ccccc3O)C2=O)cc1OC,-15%,-9%
COC(=O)c1cc2c(C)c(C)c3ccccn3c-2c1C(=O)OC,.,8%
COc1ccc(CNC(=O)C2=CC(c3ccc(OC)cc3)=NS(=O)(=O)N2C)cc1,1%,8%
CC1=CC2/C=C(\C)CCC(O)C(O)/C=C/C(=O)C23C(=O)NC(CC(C)C)C3C1C (stereo not drawn),?,?
O=C1COc2ccc(C(=O)CSc3nnc(-c4cccs4)n3Cc3ccccc3)cc2N1,-9%,-12%
C(=C\c1nc(-c2ccccc2)no1)/c1ccccc1,-8%,-10%
COCCCNc1ncnc2c1sc1nc(-c3ccco3)c3c(c12)CC(C)(C)OC3,-13%,-11%
COCCN(C(=O)Cn1nnc2ccccc21)C(C(=O)NC1CCCC1)c1ccc(OC)cc1OC (stereo not drawn),.,-12%
O=C(C[n+]1cc(-c2ccccc2)n2c1CCC2)N1c2ccccc2Sc2ccccc21,-28%,-8%
C/C(Cl)=C/CSc1nc2c(c(=O)[nH]c(=O)n2C)n1C(C)C,.,-24%
CN1CCN(c2ncnc3c2ncn3[C@H]2CN(Cc3cccs3)C[C@@H](CO)O2)CC1,-11%,-6%
COCCOC(=O)c1c(C)oc2c1cc(NS(=O)(=O)c1ccc(Cl)c(C)c1)c1ccccc12,-8%,2%
Cn1cncc1C#Cc1c(-c2ccc(S(C)(=O)=O)cc2)sc2ccccc12,?,?
O=C(Nc1ccccc1)NN(C(=O)CCl)c1ccccc1,?,?
O=C(Nc1ccc(N2CCOCC2)c(Cl)c1)c1cc(F)c(F)cc1Cl,-19%,-17%
Cc1cccc[n+]1CC(=O)c1ccccc1,-6%,1%
CC(C)(C)OC(=O)N(CCc1ccccc1)Cc1cccc(OCc2cccc(NC(=O)C3CC3)c2)c1,-15%,?
Nc1nc2c([N+](=O)[O-])cccc2s1,-2%,-14%
C=CCOc1cccc(C(=O)N2CCCC(Nc3ccc(F)cc3)C2)c1 (stereo not drawn),-20%,-20%

# One compound at a time, from the list above:
# O=C(CCc1ccc(S(=O)(=O)NC2CCCCC2)cc1)NCc1cccnc1 across the screens: Vaccinia mCherry: -11%; VACV Venus inh: -16%
# C(=C\c1nc(-c2ccccc2)no1)/c1ccccc1 across the screens: Vaccinia mCherry: -8%; VACV Venus inh: -10%
# COCCN(C(=O)Cn1nnc2ccccc21)C(C(=O)NC1CCCC1)c1ccc(OC)cc1OC (stereo not drawn) across the screens: Vaccinia mCherry: .; VACV Venus inh: -12%

# (list continues)
SMILES,Vaccinia mCherry,VACV Venus inh
CCc1ccc(S(=O)(=O)NC(CC(=O)O)c2ccccc2)cc1 (stereo not drawn),-2%,-8%
Cc1ccc(C(C)NC(=S)NCc2ccc(F)cc2)c(C)c1 (stereo not drawn),-1%,-20%
NNc1nc2cccnc2n(CCNc2ncc(C(F)(F)F)cc2Cl)c1=O,-14%,-2%
CCOC(=O)C1CCN(CCC(=O)Nc2ccccc2)CC1,.,-6%
O=[N+]([O-])c1cccc(C=NN2CCCCCC2)c1,-5%,-2%
CCOC(=O)C1CCN(C(=O)CN(c2cccc(OC)c2)S(=O)(=O)c2ccccc2)CC1,.,-19%
CCOc1ccc(S(=O)(=O)NCCc2csc(-c3ccc(Cl)cc3)n2)cc1,-6%,-15%
O=C(COC(=O)/C=C/c1ccccc1)NCc1ccccc1Cl,i,-6%
O=C(Cc1cccs1)N/N=C/C=C\c1ccccc1[N+](=O)[O-],-6%,-1%
Cc1ccc(CNC(=O)c2c(O)nc3c(C)cccn3c2=O)cc1,-14%,-9%
CC(C)n1nc(CC(=O)O)c2ccccc2c1=O,-7%,-18%
Cc1cc(C(=O)N/N=C/c2ccc3c(c2)OCO3)c(C)n1-c1ccc(F)cc1,-1%,-4%
O=C(O)c1nn(Cc2ccc(Cl)cc2Cl)c2ccccc12,-14%&-7%,-10%&-13%
COc1cc2c(cc1OC)CN(CC(=O)Nc1ccccc1C(=O)NCc1ccccc1)CC2,?,-4%
COc1ccccc1NC(=O)c1nnn(-c2ccc(F)cc2)c1C,-5%,-10%
CCC12CC1(C(=O)OC)C(=O)N1CCc3c([nH]c4ccccc34)C12 (stereo not drawn),-1%,-1%
Cc1ccc(S(=O)(=O)CCC(=O)OCc2ccc(Cl)c(Cl)c2)cc1,-19%,-12%
COc1ccccc1C(=O)Nc1ccc(NC(=O)c2ccco2)c(C)c1,-20%,-8%
COC(=O)c1cc2ccsc2n1Cc1nc(-c2ccc(Cl)cc2)oc1C,-2%,-6%
O=C(CSc1ccc2ccccc2c1)NCCc1ccc(O)c(O)c1,-23%,-13%
COc1ccc(NC(=O)CN2CC=C(c3ccccc3)CC2)cc1S(=O)(=O)N1CCOCC1,-12%,-11%
O=C(NN=C1CCCC1)c1n[nH]c2c1CCC2,?,?
CCC(=O)N1CCCc2cc(S(=O)(=O)N3CCN(C4CCCCC4)CC3)ccc21,-13%,-17%
CCSc1nnc(NC(=O)Cc2cc(OC)c(OC)c(OC)c2)s1,-1%,-21%
COc1ccc(CN2CCC[C@]3(N[C@H](c4ccc(C(F)(F)F)cc4)[C@@H]4C(=O)N(C)C(=O)[C@@H]43)C2=O)cc1,-19%,-25%

# Later entries
SMILES,Vaccinia mCherry,VACV Venus inh
C/C(=N\Nc1cccc2cccnc12)c1ccc[nH]1,-17%,-19%
Cc1cc(C)cc(OCc2cc(=O)n3c(-c4ccccc4)csc3n2)c1,-5%,-6%
Oc1cc(Cc2ccccc2)cnc1CN1CCCCC1,i,-11%
c1ccc(-c2ncnc3nc4n(c23)CCC4)cc1,-17%,-8%
O=C(NC(c1ccc(-c2ccccc2)cc1)c1cnccn1)C1CCN(CCOc2ccc(F)cc2)CC1 (stereo not drawn),-19%,?
Cc1nccn1-c1ccc(C(F)(F)F)cc1[N+](=O)[O-],-3%,-3%
CN(C)S(=O)(=O)c1cccc(C(=O)OCC(=O)Nc2sccc2C(N)=O)c1,-29%,-24%
COC(=O)c1ccc2ccn(CC(=O)NC3CCCCC3)c2c1,-19%,-18%
CN(C)S(=O)(=O)c1ccc(N2CCCC2)c(C(=O)Nc2ccc(F)cc2F)c1,i,-16%
CCOC(=O)C1=CN(Cc2ccco2)S(=O)(=O)NC1c1ccc(F)c(Cl)c1 (stereo not drawn),-12%,?
O=C(Nc1ccc(Br)cc1)c1cc(S(=O)(=O)N2CCc3ccccc32)ccc1F,-25%,-22%
COc1ccc(C(=O)C2CCCN(C(=O)c3ccoc3C)C2)cc1F (stereo not drawn),i,-11%
Cc1cc2c3ccccc3[nH]c(=O)n2n1,i,-11%
O=C(Nc1cc(F)c(Br)cc1F)c1ccc(Cl)cc1,0%,0%
CC1=C(C(N)=O)C(c2ccc(F)cc2)n2nc(-c3ccc(N(C)C)cc3)nc2N1 (stereo not drawn),1%,-8%
Cc1ccc(C(=O)O)c(NC=O)c1OCc1ccccc1,i,-6%
CC(=O)N1CCOc2cc(S(=O)(=O)Nc3cccc(C(F)(F)F)c3)c(Cl)cc21,-26%,-21%
COc1ccc(Cl)cc1C(=O)OCC(=O)NC(=O)c1cccn1C,.,-19%
COc1cc2c(c(OC)c1OC)CCc1cnoc1-2,-23%,-9%
CCCCCc1ccc(C(=O)CCC(=O)OCC(=O)N(CC)c2c(N)n(Cc3ccccc3)c(=O)[nH]c2=O)cc1,-21%,-21%
C[C@@H]1O[C@H](C2CC2)Cc2[nH]c(=S)[nH]c(=O)c21,18%,-2%
O=C(O)c1cc2c(s1)-c1ccccc1OC2,.,-30%
CC(C)CCNC(=O)c1ccc2nc(CCc3ccccc3)oc2c1,-8%,-19%
CC1(C)CC(=O)C(Sc2ccccc2C(=O)O)=C(O)C1,-12%,-3%
O=[N+]([O-])c1ccc(NS(=O)(=O)N2CCOCC2)cc1,-14%,-11%

# (further entries)
SMILES,Vaccinia mCherry,VACV Venus inh
CC(=O)Nc1sc(N/N=C\c2cccc(Cl)c2)nc1-c1cccs1,-7%,-8%
COc1ccc2nc(C)c(C(N)=O)cc2c1,?,?
COC(=O)[C@]1(Cc2ccccc2)N[C@H](c2ccc(-c3ccc4c(c3)OCO4)cc2)[C@@H]2C(=O)N(C)C(=O)[C@@H]21,-14%,-22%
O=C(Nc1cccc(F)c1)N(Cc1ccc(Cl)cc1)CC(O)C(F)(F)F (stereo not drawn),?,?
O=C(CNCc1ccc(Cl)cc1)Nc1cccc(C(=O)O)c1,-15%,-2%
CN(C)c1ccc(C=C2C(=O)NC(=O)NC2=O)cc1,i,2%&-15%
COC(=O)C[C@H]1c2ccc(C(F)(F)F)cc2S(=O)(=O)N1Cc1ccccc1,-12%,-15%&-15%
Cc1cc(=S)[nH]c2ccccc12,-11%&-9%,13%&-4%
CCC(C)N(C(=O)COC(=O)/C=C/c1ccc(O)c(OC)c1)C1CCS(=O)(=O)C1 (stereo not drawn),-22%,-9%
CC(C)N1CCN(C(=O)C2CCC(=O)N(CCc3cccc(F)c3)C2)CC1 (stereo not drawn),-12%,-7%
COCCNC(=O)C1(C)CCCN(C(=O)c2ccc3c(c2)OCO3)C1 (stereo not drawn),6%,3%
CCOC(=O)c1ccc(NC(=O)CSc2ccc3ccccc3n2)cc1,-2%,-2%
COc1ccc(CS(=O)(=O)c2nc(C)cc(C)c2S(C)(=O)=O)cc1,-25%,-7%
Cc1ccc(NCc2nnc(SCC(=O)O)n2Cc2ccccc2)cc1Cl,-2%,-8%
CCOC(=O)c1cc(-c2ccccc2)sc1NC(=O)C(C)OC(=O)c1cccnc1Cl (stereo not drawn),i,-8%
O=C(Nc1ccc(Cl)c(Cl)c1)N1CC=C(c2ccccc2)CC1,i,-23%
COc1ccc(Nc2nc(-c3ccc(OC)cc3)c(CCC(=O)O)s2)cc1,?,-9%
Cc1cc(C)c(C(=O)Nc2ccc3c(c2)OCCO3)c(C)c1,-6%,-14%
O=C(Cc1cccc([N+](=O)[O-])c1)Nc1cccc(C(=O)N2CCCCC2)c1,-13%,-17%
CCOc1ccccc1NC(=O)c1ccc(NC(=O)c2ccco2)cc1,.,-22%
CCCN(C(=O)CSCc1ccc(C)cc1)c1c(N)n(Cc2ccccc2)c(=O)[nH]c1=O,i,-16%
CCOC(=O)c1cc(NC(=O)Nc2ccccc2Cl)c(C)nc1C,-4%,4%
O=C(COC(=O)c1cccc(Cl)c1)Nc1ccc2[nH]c(=O)[nH]c2c1,i,-8%
C[C@H](CO)N1C[C@H](C)[C@@H](CN(C)S(=O)(=O)c2ccccc2)Oc2c(NC(=O)Cc3ccccc3)cccc2C1=O,i,-15%
O=C(COC(=O)[C@@H]1CCCN1S(=O)(=O)c1ccc(Cl)cc1)NC12CC3CC(CC(C3)C1)C2,-12%,-10%

# Six consecutive compounds out of the list so far:
SMILES,Vaccinia mCherry,VACV Venus inh
CC(=O)Nc1sc(N/N=C\c2cccc(Cl)c2)nc1-c1cccs1,-7%,-8%
COc1ccc2nc(C)c(C(N)=O)cc2c1,?,?
COC(=O)[C@]1(Cc2ccccc2)N[C@H](c2ccc(-c3ccc4c(c3)OCO4)cc2)[C@@H]2C(=O)N(C)C(=O)[C@@H]21,-14%,-22%
O=C(Nc1cccc(F)c1)N(Cc1ccc(Cl)cc1)CC(O)C(F)(F)F (stereo not drawn),?,?
O=C(CNCc1ccc(Cl)cc1)Nc1cccc(C(=O)O)c1,-15%,-2%
CN(C)c1ccc(C=C2C(=O)NC(=O)NC2=O)cc1,i,2%&-15%

# (cont.)
SMILES,Vaccinia mCherry,VACV Venus inh
CC(C)(C)c1ccc(C(=O)CC(Sc2ccc(Cl)cc2)C(=O)O)cc1 (stereo not drawn),?,?
Cc1ccc(C2(C)NC(=O)N(CC(=O)Nc3cccnc3Cl)C2=O)cc1 (stereo not drawn),i,-12%
Cc1noc(C)c1-c1nc(CS(=O)(=O)c2ccc(Cl)cc2)no1,-8%[7.34 µM],-1%[7.34 µM]
C[N+]1=C2CCCCCN2C(O)(c2ccccc2)C1 (stereo not drawn),-2%,-12%
CCOC(=O)CN(Cc1ccc(OC)c(OC)c1)S(=O)(=O)c1ccc(OC)cc1,-4%,-20%
Cc1c(F)cccc1NS(=O)(=O)c1ccccc1C#N,-18%,-1%
CC(C)CC(NC(=O)C(Cc1ccc(OCc2ccccc2)cc1)NC(=O)OC(C)(C)C)C(N)=O (stereo not drawn),-6%,2%
O=C(Cn1c(=O)c2cccn2c2ccc(F)cc21)NCc1cccc(Cl)c1,9%,-2%
Cc1ccc2c(=O)cc(C(=O)Nc3sc4c(c3C(=O)NCc3ccco3)CCC4)oc2c1,i,-5%
CN(C)c1ccc(/C=N/NC(=O)c2ccc(Cl)cc2)cc1,?,-17%
Cc1cc(C)nc(N/C(=N/S(=O)(=O)Cc2ccccc2)Nc2ccccc2)n1,-11%,-20%
O=C1[C@H]2[C@@H](c3ccc(F)cc3)N3C(=O)N(c4ccccc4)C(=O)[C@@]3(Cc3ccccc3)[C@H]2C(=O)N1C1CCCCC1,i,-8%
CC(C)CNC(=O)C1(C)CCCCCN1C(=O)c1cc(C#N)cs1 (stereo not drawn),13%,-8%
